Env fusion inh: inhibitors of HIV Env-mediated cell fusion | 360,000 tested, 1.1% active | inhibition, % at 12.3 µM | HeLa-JRFL Env/CEM21 cell fusion, luciferase;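 active = mean replicate inhibition score of at least 50 and every replicate individually at or above 50; inconclusive = only one of the two criteria met; inactive = mean below 50 and not all replicates reaching 50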;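 note: 0% = plate neutral controls and 100% = maraviroc near 300 nM; one replicate is shown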
Rce1 inhib: inhibitors of yeast Ras-converting enzyme. Q03530. yeast membranes, quenched prenylated peptide cleavage fluorescence. calls only. 290,000 tested, 0.27% active;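 active = fall in fluorescence gain of 50% or more versus controls, with final raw signal at or below 3038400; inconclusive = same 50% fall but final raw signal above 3038400; inactive = fall in fluorescence gain under 50%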;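 note: plate controls were neutral control wells for no effect and wells lacking membranes for full effect; tested at 10 µM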
CSC inhib: cancer stem cell inhibition | cancer stem cell-like cells viability, luminescence | inhibition, % at 7.5 µM | AID 2717 | 300,000 tested, 1.1% active;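 active = mean at 75% or more and at least half the replicates too; inconclusive = mean and replicates disagree; tested in HMLE shEcad cells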;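 note: 0% = median of negative and 100% = median of positive control wells; the first replicate is given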
UUG fidelity: modulators of start codon recognition fidelity in yeast. S. cerevisiae UUG-firefly luciferase reporter, luminescence/redox ratio. activity score, % at 18.7 µM. 350,000 tested, 0.13% active. AID 602363;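 active = replicate mean at a twofold rise or more, about +100% in these data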;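 note: firefly luciferase made from a UUG start codon reports start codon fidelity; reporter light over untreated wells divided by growth signal over untreated wells; some hits fall short of that in this replicate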
MT1-MMP act inh: blocks activation of human MT1-MMP. AID 651647. 360,000 tested, 0.061% active. P50281. GFP/RFP ratio change, % at 20 µM. HT1080 RFP-PRO-GFP cells, GFP/RFP ratio fluorescence, overnight; percent of plate control window, DMSO zero;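 active = GFP/RFP ratio change of at least 30% with cell ATP level not reduced by more than half and red fluorescence within 50% of control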; note: strong numbers were not always called active
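Assay system: HT1080 RFP-PRO-GFP cells | Dosing: 20 µM single dose, 1% DMSO | Incubation: Cells overnight before dosing, compound overnight, 37 °C, 5% CO2 | Evaluation: GFP/RFP fluorescence ratio | Control set: DMSO-only wells and HT1080 RFP-L50D-GFP cell wells as references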
eIF4H inh: inhibitors of RNA binding by human eIF4H. Q15056. eIF4H fluorescence polarization binding assay. inhibition, % at 35 µM. 290,000 tested, 0.94% active;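 active = 50% or more with normal probe brightness, or confirmed in later tests; inconclusive = above 50% with abnormal brightness, or retests that disagree; inactive = below 50% or failed in later tests; about a fifth of its hits are not listed in these tables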;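 note: calls also rest on retests at 20 µM and on dose response follow-up; 0% = protein and probe with vehicle and 100% = probe without protein; strong numbers were not always called active; many hits fall short of the cut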
PABP FP inh: PABP-poly(A) binding inhibition; P11940; PABP-poly(A) RNA binding, fluorescence polarization; inhibition, % at 35 µM; 290,000 tested, 1% active;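 active = 50% or more with normal probe brightness, or confirmed in later tests; inconclusive = above 50% with abnormal brightness, or retests that disagree; inactive = below 50% or failed in later tests; about a fifth of its hits are not listed in these tables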;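 note: calls also rest on retests at 20 µM and on dose response follow-up; controls were probe without protein and protein plus probe with vehicle; some compounds called inactive have numbers as strong as hits; many hits fall short of the cut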
Target sequence (P11940 whole entry, looked up): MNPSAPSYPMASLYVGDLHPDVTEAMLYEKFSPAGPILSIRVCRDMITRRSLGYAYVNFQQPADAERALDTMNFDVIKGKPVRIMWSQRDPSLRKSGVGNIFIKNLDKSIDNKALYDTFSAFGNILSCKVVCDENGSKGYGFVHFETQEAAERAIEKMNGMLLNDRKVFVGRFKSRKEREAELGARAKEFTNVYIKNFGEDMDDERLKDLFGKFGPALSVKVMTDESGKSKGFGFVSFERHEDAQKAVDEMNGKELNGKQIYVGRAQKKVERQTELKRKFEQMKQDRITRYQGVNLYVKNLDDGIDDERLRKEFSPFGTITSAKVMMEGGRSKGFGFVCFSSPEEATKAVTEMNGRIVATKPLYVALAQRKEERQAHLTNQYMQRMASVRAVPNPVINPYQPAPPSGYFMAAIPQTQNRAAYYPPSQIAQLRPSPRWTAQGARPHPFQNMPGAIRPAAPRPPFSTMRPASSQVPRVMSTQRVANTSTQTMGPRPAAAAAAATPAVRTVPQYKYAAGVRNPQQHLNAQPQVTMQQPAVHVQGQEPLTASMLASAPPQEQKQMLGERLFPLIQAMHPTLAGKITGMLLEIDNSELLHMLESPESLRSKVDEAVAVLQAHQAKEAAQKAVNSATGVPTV
MT1-MMP act inh RFP: further read-out of MT1-MMP act inh, marked with its call; RFP signal change, %; measured here: RFP expression control read;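 0 = vehicle wells; hits needed this value within 50% of zero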
Active calls of the source: *; i = inactive; ? = inconclusive; nt = not tested or not shown; & = joins results of further samples. This is a subset. The share of hits here may be higher or lower than overall.

molecule	Env fusion inh	Rce1 inhib	CSC inhib	UUG fidelity	MT1-MMP act inh	MT1-MMP act inh RFP	eIF4H inh	PABP FP inh
CN(C)CCNC(=O)c1c(O)c2c([nH]c1=O)CCCC2	nt	i	34.2	-31.2	2.8	3.5	-5.4	-4.1
CCOc1ccc(NC(=O)CCNS(=O)(=O)c2cccs2)cc1	nt	i	9.4	-0.1	-2.9	3.8	2.6	11.1
CC1NC(=O)NC1CCCCCC(=O)Nc1ccc(F)cc1 (stereo not given)	6.3	i	-7.7	nt	-2.6	-0.9	4.1	?
CCCNC(=O)c1cc(C2CCCCN2C(=O)c2ccc(OC)cc2)on1 (stereo not given)	-2.5	nt	nt	-5.8	-0.6	1.4	nt	nt
COc1cc(C2NC(=O)NC(C)=C2C(=O)OC2CCC(C)CC2)ccc1O (stereo not given)	-29.3	i	2.4	-11.8	-1.5	-5.6	6.8	2.7
Cc1ccc(NC(=O)CN2CC(C)SC2=NC2CCCCC2)cc1 (stereo not given)	0.1	nt	-6.6	11.4	1.8&3.9	2.4&-0.5	-8.0	14.8
COC(=O)CCC(=O)OC1(C)C(=O)C2=CN(c3ccc(OC)cc3)C(c3ccc(OC)cc3)=CC2=C(Br)C1=O (stereo not given)	nt	i	2.9	-13.1	16.2	23.9	nt	nt
Cc1ccnn1CC(=O)N/N=C/c1cn[nH]c1-c1ccccc1	7.7	i	-10.5	nt	0.6	1.2	2.0	1.2
Cc1ccc(-c2ccc(/C=N/N3C(=O)C4C5C=CC(C6CC56)C4C3=O)o2)c([N+](=O)[O-])c1 (stereo not given)	nt	i	50.6	6.1	-0.1	2.0	30.1	17.8
Nc1nc(NCc2ccccc2)nc(Nc2ccc(F)cc2)c1[N+](=O)[O-]	i	i	-4.7	-15.6	3.2	2.0	-2.5	-6.5
Cc1ccc(C(CNS(=O)(=O)c2ccccc2)N2CCN(C)CC2)cc1 (stereo not given)	0.8	i	nt	-12.1	0.7	-0.6	nt	nt
Cc1ccc(S(=O)(=O)ON2C(=O)c3cccc4cccc(c34)C2=O)cc1	27.8	i	4.8	-34.8	-2.7	1.0	3.9	-1.4
CCCn1c(SCC(=O)N2CCCC2=O)nc2ccccc2c1=O	-4.5	nt	nt	-10.0	6.1	1.3	nt	nt
Cc1cc(C)n2nc(SC(C)C(=O)N3CC(C)OC(C)C3)nc2n1 (stereo not given)	nt	nt	-5.7	-14.3	-3.4	3.9	nt	nt
O=C(Cc1ccc(Cl)cc1)Nc1ccccc1N1CCN(C(=O)c2ccccc2)CC1	13.9	i	10.8	3.8	0.5	-8.2	2.3	8.6
COc1cc2cc(C(c3nnnn3Cc3ccc(F)cc3)N3CCCCCC3)c(=O)[nH]c2cc1OC (stereo not given)	nt	i	-8.1	nt	-2.6	0.0	4.2	-1.0
COc1ccc(NC(=O)CSc2nccn2Cc2ccccc2)cc1	-46.8	i	-11.6	-11.4	-0.4	1.1	-2.5	-7.1
COc1cccc(CC(=O)OCC(=O)Nc2c(C)nn(-c3ccccc3)c2C)c1	-3.8	nt	nt	-12.6	8.6	3.9	nt	nt
O=C(NCC(=O)N1CCC2(CC1)NCCc1[nH]cnc12)c1ccc(Br)cc1	-4.0	i	-8.0	-20.6	-1.3	2.2	-6.5	-7.1
S=C(Nc1ccccc1Cl)NC1CCC(NC(=S)Nc2ccccc2Cl)CC1 (stereo not given)	-51.7	i	11.3	nt	7.6	3.4	-1.9	-2.8
CCOC(=O)Cn1c2ccc(OC)cc2c2nc3ccccc3nc21	-102.7	i	6.7	-20.4	-89.2	1.3	?	?
COc1cc(OC)nc(Nc2nc(C(N)c3ccccc3)cs2)n1 (stereo not given)	-1.0	nt	nt	29.4	0.8	3.7	nt	nt
COc1cccc(OC)c1C(=O)OCC(=O)N1CC(C)CC(C)C1 (stereo not given)	-17.4	nt	-16.0	-7.3	0.8	4.6	nt	nt
COCCSc1ccccc1C(=O)Nc1ccc([N+](=O)[O-])cc1OC	-10.6	i	-4.8	nt	-1.2	-2.9	3.8	5.0
OCCC#Cc1ccc(CN2CCN(Cc3ccsc3)C(CCO)C2)cc1 (stereo not given)	6.1	i	-2.5	-19.7	-1.7	2.0	-6.7	-5.8
CC(C)(C)N1C(=O)c2ccc(C(=O)Nc3ccc(C(=O)O)cc3)cc2C1=O	6.3	i	-28.9	3.7	0.0	3.6	-12.2	3.1
CC(=O)Nc1ccc(NC(=O)Nc2ccc(C)cc2C)cc1	7.7	i	-20.4	-13.0	1.5	6.3	-1.7	-10.1
O=c1/c(=C/c2ccc(CNS(=O)(=O)c3ccccc3)o2)sc2n1CCN=2	nt	i	7.5	nt	-3.8	3.2	?	?
CN(C)C(=O)N1CCN(C(=O)c2ccccc2Sc2ccccc2C#N)CC1	-4.3	i	4.4	-8.2	-0.7	0.9	6.6	2.9
COC(=O)CCCCC(=O)C1C(=O)CC(C)(C)C(C(=O)OC)C1=O (stereo not given)	nt	i	1.8	45.9	-1.9	5.0	-1.4	6.5
CCOc1cc(/C=N/NC(N)=O)cc(Br)c1OCC(=O)Nc1ccccc1C	-0.7	nt	-7.1	-7.8	-1.1	-6.1	2.6	10.4
CCC(=O)Nc1cccc(NC(=S)NC(=O)c2ccc(Cl)cc2Cl)c1	-1.6	i	-4.4	nt	3.9	-6.1	-1.6	-4.5
CCCCC1(C)OC(=O)C(=Cc2ccc(N(C)C)cc2)C(=O)O1 (stereo not given)	nt	i	0.5	-11.2	1.9	4.9	-0.9	-5.3
Cn1cnnc1SCCNS(=O)(=O)c1cccc([N+](=O)[O-])c1	-8.6	i	-6.3	-12.3	1.0	5.9	-4.7	5.6
COc1ccc(C2c3[nH]c4ccccc4c3C[C@H]3C(=O)N(C)CC(=O)N23)cc1OC (stereo not given in full)	13.4	i	-13.3	-2.1	0.6	5.2	4.7	-6.2
COCCn1c(C)cc(C(=O)COC(=O)c2ccc(S(=O)(=O)N(C)C)cc2)c1C	1.5	nt	7.1	3.5	-2.3	0.4	nt	nt
C/[N+]([O-])=C\c1cccc(OCCN2CCN(c3ncc(C(F)(F)F)cc3Cl)CC2)c1	-14.0	i	0.3	-2.6	8.2	-8.9	-5.5	1.0
O=C(NC1CCN(Cc2ccccc2)CC1)c1ccc(CS(=O)c2ccccc2Cl)o1 (stereo not given)	19.3	nt	nt	-13.2	-0.9	1.9	nt	nt
CCCCc1nc2sc3c(SCCN(C)C)ncnc3c2c2c1CCC2	12.6	i	67.0	nt	-2.1	-4.9	-5.4	9.8
CCCn1nc(-c2nnc(-c3ccc(C)c(C)c3)o2)c2ccccc2c1=O	nt	i	-9.9	-18.6	-4.9	1.3	-3.8	13.8
CCOc1ccc(NC(=O)NC2CCCCCCC2)cc1	-77.2	i	-19.8	-6.2	1.9	1.4	-9.3	-0.3
COC(=O)c1cnn2c(C)c(Cc3cccc(F)c3)c(C)nc12	-10.5	i	nt	-16.8	7.0	-0.7	5.1	5.6
CCCCN(C(=O)c1ccc2c(c1)OCO2)C1CCS(=O)(=O)C1 (stereo not given)	nt	i	4.7	-13.2	1.7	1.4	nt	nt
Cc1cc(OC(C)C(=O)NC2CC(C)(C)NC(C)(C)C2)c2c(C)cc(=O)oc2c1 (stereo not given)	-1.4	i	19.7	6.2	2.5	4.4	-0.9	2.8
c1ccc(-c2ncc(CN3CCN(c4ccccn4)CC3)[nH]2)cc1	9.4	i	-20.2	-13.8	-0.1	-1.1	-0.3	-5.4
CC(CNC(=O)c1ccccc1Cl)c1ccccc1 (stereo not given)	-26.8	i	3.0	-11.4	-2.5	-3.3	2.6	10.7
CCN(C(=O)COC(=O)CNC(=O)c1ccc(C)c(C)c1)C1CCS(=O)(=O)C1 (stereo not given)	9.4	i	-6.9	nt	-2.4	-7.3	-2.5	1.3
Cc1c(Cl)cccc1NC(=O)CC1SCCNC1=O (stereo not given)	-36.0	i	3.6	-13.8	-7.8	5.3	-11.1	-7.4
Cc1ccc(S(=O)(=O)N2CCN(C(=O)COC(=O)c3ccccc3OC(F)F)CC2)c(C)c1	-3.8	nt	nt	13.2	-0.8	2.1	nt	nt
O=C(Nc1ccc(N2CCOCC2)cc1)c1cccc(S(=O)(=O)N2CCCCC2)c1	nt	i	nt	2.4	-1.0	-12.8	5.1	-5.7
Cc1ccc(NC(=O)N2CCCC2C(=O)NCCc2ccccc2)cc1 (stereo not given)	-11.6	i	nt	-16.1	-4.0	3.4	-1.7	-8.9
COCCCNC(=S)Nc1ccc(S(=O)(=O)Nc2cc(OC)nc(OC)n2)cc1	-187.9	i	11.6	-21.9	6.1	2.4	-11.0	-7.3
COc1ccc(-n2c(SCC(=O)Nc3ccc(C)cc3)nc(O)c(Cc3ccccc3)c2=O)cc1	-4.5	i	-7.1	-17.8	3.6	-2.5	-5.9	5.2
CCc1cc2c(=O)oc(-c3ccccc3F)nc2s1	-1.1	i	-3.9	-30.8	1.3	4.2	-8.5	0.7
Cc1ccc(C(=O)OC2CCN(c3ccc([N+](=O)[O-])cc3)CC2)cc1	-2.3	i	-1.7	-4.8	11.3	3.2	-12.3	-5.5
CC(=O)Nc1ccc(S(=O)(=O)Nc2cc3c(cc2C(C)=O)OCO3)cc1	0.3	nt	1.3	-4.0	1.5	2.8	2.7	-0.5
COc1ccc(Cl)cc1C(=O)Nc1ccccc1N1CCCCC1	39.6	i	53.3	-4.7	-5.3	-8.7	-2.0	-15.6
Fc1ccc(N2CCN(/C=C/c3nnnn3-c3ccccc3)CC2)cc1	-8.3	i	-11.8	-14.4	-2.9	5.5	-9.4	-8.1
CCCC(=O)Nc1cccc(NC(=O)c2ccc(C)c([N+](=O)[O-])c2)c1	-4.3	i	-18.4	-3.8	-1.3	3.7	-4.0	-1.0
O=C(Nc1c[nH]c(=O)[nH]c1=O)c1ccccc1Cl	-177.4	i	nt	-14.0	0.9	-0.1	-2.5	-2.4
O=[N+]([O-])c1cc(-c2ncccn2)cs1	1.5	nt	1.0	nt	1.8	1.6	-1.0	-1.2
